D2 PAM = human D2 receptor positive allosteric modulation; P14416; DiscoveRx D2 beta-arrestin cells, luminescence, 90 min; 100% = 57 uM dopamine signal; potentiation, % (concentration not given with the values); 360,000 tested, 0.23% active; AID 624464; active = potentiation of 50% or more; inconclusive = 30% to 50%; inactive = 30% or less;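 further: compound concentration not given in the record; tested on top of an EC20 dose of dopamine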
Target sequence (P14416 whole entry, looked up): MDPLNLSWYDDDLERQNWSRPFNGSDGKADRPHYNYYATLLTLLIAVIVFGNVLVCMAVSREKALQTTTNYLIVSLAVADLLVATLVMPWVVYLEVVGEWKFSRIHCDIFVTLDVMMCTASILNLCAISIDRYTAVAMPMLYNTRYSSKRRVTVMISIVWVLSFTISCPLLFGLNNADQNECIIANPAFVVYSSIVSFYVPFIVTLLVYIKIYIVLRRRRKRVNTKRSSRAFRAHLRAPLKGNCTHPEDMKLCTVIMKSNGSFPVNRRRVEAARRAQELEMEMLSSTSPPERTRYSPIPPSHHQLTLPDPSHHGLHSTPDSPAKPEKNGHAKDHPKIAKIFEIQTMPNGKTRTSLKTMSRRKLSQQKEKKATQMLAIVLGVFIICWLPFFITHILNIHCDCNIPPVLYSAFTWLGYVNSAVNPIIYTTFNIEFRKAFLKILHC
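D2 cells co-treated with compound plus 50 nM dopamine (EC20) for 90 min at 37 deg C to detect potentiation. Beta-arrestin recruitment was read as enzyme-fragment luminescence after 1 h at ambient temperature. Full response was set by 57 uM dopamine.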
TRPML1 blocker = inhibitors of human TRPML1 channel; activity change, negative = inhibition, % (test concentration not listed); Q9GZU1; 390,000 tested, 0.02% active; TRPML1-inducible cells, Ca2+ dye fluorescence, FDSS; active compounds read low; inhibition of EC80 agonist-evoked calcium signal; in the data active means activity change below about -50%; inconclusive means about -30% to -50%; inactive means above about -30%;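 further: stimulus is agonist 54-4 at its EC80 concentration; on the % scale 0 is the no-effect control and ±100 the full control effect; compound concentration not given in the record; the text of the record puts the active cut at -80%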
Target sequence (Q9GZU1 whole entry, looked up): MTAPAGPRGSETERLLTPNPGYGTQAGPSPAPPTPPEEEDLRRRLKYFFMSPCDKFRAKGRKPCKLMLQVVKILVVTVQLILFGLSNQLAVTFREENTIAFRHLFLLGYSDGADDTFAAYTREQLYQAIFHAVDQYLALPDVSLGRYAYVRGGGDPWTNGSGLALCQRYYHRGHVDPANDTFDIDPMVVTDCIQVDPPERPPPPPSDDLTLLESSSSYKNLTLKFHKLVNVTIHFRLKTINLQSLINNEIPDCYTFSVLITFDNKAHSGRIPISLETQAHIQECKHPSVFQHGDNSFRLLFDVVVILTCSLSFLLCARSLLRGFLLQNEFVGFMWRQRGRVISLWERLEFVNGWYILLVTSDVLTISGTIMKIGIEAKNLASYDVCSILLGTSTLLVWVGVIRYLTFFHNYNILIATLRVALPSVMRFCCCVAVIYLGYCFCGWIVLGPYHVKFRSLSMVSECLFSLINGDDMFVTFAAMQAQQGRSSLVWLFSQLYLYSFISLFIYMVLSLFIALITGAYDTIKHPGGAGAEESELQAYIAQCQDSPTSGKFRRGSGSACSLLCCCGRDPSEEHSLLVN
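Tet-induced TRPML1-DL cells loaded with Ca8 no-wash calcium dye were read kinetically on FDSS. Compound addition was followed by EC80 agonist 54-4 (4 uM final); inhibition was read over 110 s.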
TRPV1 potentiator = enhances activation of the human vanilloid receptor TRPV1 | Q8NER1 | TRPV1-expressing cells, Fluo-8 calcium influx, capsaicin EC20 potentiation; host cell line not named in the record; control for the full effect not named in the record | potentiation, % at 8.33 µM | 320,000 tested, 0.02% active; active means potentiation above 80%; inconclusive means 30% to 80%; inactive means below 30%; further: 0% is about no effect
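Cells expressing TRPV1 were dye-loaded with Fluo-8 and read kinetically: 10 s baseline, 3 min after compound (agonist portion), then 2 min after EC20 capsaicin (allosteric enhancer portion). Calcium-bound dye fluorescence at 480/520 nm.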
Six1-Eya2 inh = blocks human Six1 binding to Eya2; activity change, % (no concentration beside the values); 360,000 tested, 0.56% active; Q15475+O00167; AlphaScreen GST-Six1/His-Eya2 binding, biochemical; active compounds read low; control for the full effect not named in the record; in the data active = activity change below about -65%; inconclusive = about -30% to -65%; inactive = above about -30%; further: on the % scale 0 is the no-effect control and ±100 the full control effect
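AlphaScreen with GST-Six1 and His-Eya2 (5X mix: 250 nM and 500 nM), glutathione donor and nickel acceptor beads; buffer 50 mM Tris pH 8.0, 300 mM NaCl, 1 mM TCEP; 1 h at 37 C in the dark.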
CtBP-E1A blk = CtBP/E1A binding inhibition; activity change, % (no concentration beside the values); 340,000 tested, 0.49% active; AlphaScreen GST-E1A/His-CtBP binding, 1536-well; active compounds read low; control for the full effect not named in the record; AID 651724; in the data active means activity change below about -65%; inconclusive means about -30% to -65%; inactive means above about -30%; further: on the % scale 0 is the no-effect control and ±100 the full control effect
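Homogeneous bead-based format: GST-tagged E1A captured on glutathione donor beads, His-tagged CtBP on nickel acceptor beads; compounds precede bead addition by 2 h at 37 °C.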
TRPML1 ag = activates the human TRPML1 channel; TRPML1-expressing cells, Ca2+ dye fluorescence, FDSS; host cell line not named in the record; reference of the full effect not given here; 410,000 tested, 0.12% active; AID 624414; Q9GZU1; activation, % (no concentration beside the values); in the data active = activation above about 50%; inconclusive = about 30% to 50%; inactive = below about 30%; further: 0% is about no effect; the text of the record puts the active cut at 80%
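Kinetic FDSS Ca2+ read in Tet-induced TRPML1-DL cells (ABD Ca8 dye plus quencher, 45-90 min RT loading): baseline, then compound, then 110 s agonist window; EC80 agonist 54-4 at 4uM final added afterwards for a 110 s antagonist window.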
* marks the source's active call; other numbers are inactive results; ? = inconclusive; . = no result given.

canonical_smiles | D2 PAM | TRPML1 blocker | TRPV1 potentiator | Six1-Eya2 inh | CtBP-E1A blk | TRPML1 ag
O=C(O)c1cc(-c2ccccc2Cl)n(-c2ccccc2)n1 | -7 | 4 | ? | 11 | 2 | 1.1
N#Cc1c(/N=C/c2cc3ccccc3s2)sc2c1CCC2 | 7 | 34 | 3 | -11 | -21 | -0.1
Cc1ccc(-c2cc(C(=O)Nc3nccs3)c3ccccc3n2)c(C)c1 | -5 | 22 | -11 | -5 | -18 | 1.9
O=C(NC(=S)Nc1cccnc1Cl)c1ccc(Cl)cc1 | -18 | 22 | -15 | -7 | -1 | 1.2
CC(=O)N(c1ccccc1)C(C(=O)c1ccccc1)c1ccccc1 (centres undefined) | -5 | -11 | . | -2 | -6 | 4.4
CC(=O)Nc1ccc(NC(=O)C(C)OC(=O)C2CC(=O)N(CCc3ccccc3)C2)cc1 (centres undefined) | 3 | 5 | -3 | -2 | 5 | -0.4
Cc1ccc(NS(=O)(=O)c2ccc(Cl)nc2)c(C)c1 | -13 | -3 | -2 | 6 | -21 | 1.6
COc1cccc(OC)c1C(=O)Nc1nc(COc2ccccc2)cs1 | -4 | -2 | 9 | -6 | . | -0.4
O=C(Nc1ccc(N2CCOCC2)cc1)c1cccc2ccccc12 | -2 | ? | 1 | -7 | 9 | 1.0
CC1CCC(NC(=O)c2cccc(S(=O)(=O)N3CCN(c4ccc(F)cc4)CC3)c2)CC1 (centres undefined) | -7 | 16 | 1 | 2 | 6 | 0.1
O=C1/C(=C/c2ccc(O)cc2)SC(=S)N1CC1CCCO1 (centres undefined) | -14 | 0 | -6 | -14 | -10 | 17
COc1cccc(CNC(=O)[C@@H]2CCCN2C(=O)[C@@H]2CCCN2C(=O)c2cccs2)c1 | . | . | . | 1 | 3 | -0.9
Cc1ccc(N=C2SCCCN2C(=O)c2cccc(N3C(=O)CCC3=O)c2)cc1Cl | -8 | 2 | 4 | -3 | 6 | 2.0
COc1cc(C2/C(=C(\O)c3ccc4c(c3)CC(C)O4)C(=O)C(=O)N2c2nnc(C)s2)cc(OC)c1OC (centres undefined) | -2 | -15 | -14 | 3 | 8 | 0.8
N#Cc1ccc(CSc2nnc(-c3cccnc3)o2)cc1 | -9 | -1 | -7 | -1 | 8 | 1.3
COc1ccc(NC(=O)N(C)C[C@H]2Oc3ncc(C#C[C@@H](C)O)cc3C(=O)N([C@H](C)CO)C[C@H]2C)cc1 | 3 | 22 | . | -19 | ? | -0.5
COc1ccccc1N1CC(C(=O)Nc2cc(C(F)(F)F)ccc2N2CCCC2)CC1=O (centres undefined) | -13 | 0 | 7 | -5 | -1 | 0.3
CC(CC(=O)Nc1cc([N+](=O)[O-])ccc1Cl)c1ccccc1 (centres undefined) | -13 | -6 | -24 | -1 | 7 | 1.4
COCCCn1c(C(=O)NCCC2=CCCCC2)cc2c(=O)n3ccccc3nc21 | 5 | 19 | -1 | 2 | 7 | -1.2
Cc1ccc(SCCC(=O)NCc2ccccn2)cc1 | -29 | -6 | -11 | -4 | 3 | -0.5
O=c1cc(N/N=C/c2ccccc2)[nH]c(=O)[nH]1 | 5 | -6 | . | -22 | -1 | 0.2
C=CC[C@@H](Cc1ccc(F)cc1)C(=O)OC[C@H]1CCCN1C(=O)[C@H](CC=C)CC(=O)N[C@H](CO)Cc1ccccc1 | -5 | 20 | . | -3 | -15 | 0.5
O=C(c1cccc(Oc2c(Cl)cccc2[N+](=O)[O-])c1)N1CCOCC1 | 13 | -2 | 1 | -10 | 5 | -0.1
COc1ccc(C(C)C)cc1S(=O)(=O)n1cnc(C)c1 | 6 | 15 | 1 | 0 | 0 | -0.5
COC(=O)c1ccc(OCC(O)CN2C(=O)c3ccccc3C2=O)cc1 (centres undefined) | -2 | -1 | -19 | -2 | 7 | 3.4
CCN1CCc2nc(NC(=O)c3ccc(S(=O)(=O)N(C)C)cc3)sc2C1 | -7 | -1 | -3 | 7 | 10 | -0.5
COc1ccccc1N1CCN(S(=O)(=O)c2ccc(-c3ccc(=O)[nH]n3)o2)CC1 | -24 | 1 | -10 | -2 | -5 | -0.5
O=C(Nc1ccccc1Oc1ccccc1)c1cccc([N+](=O)[O-])c1 | -8 | 6 | -13 | -11 | -7 | 0.6
O=C(Nc1ccc([N+](=O)[O-])cc1)N1CCc2ccccc2C1 | -12 | 58 | -14 | -18 | -4 | 2.3
CC(C)(C)S(=O)(=O)N1C[C@H]2CC/C=C\C/C=C\2[C@@H]1CCO | 2 | 34 | . | 2 | 6 | -0.7

By substructure, the compounds so far with an NH in an aromatic ring (2)
canonical_smiles | D2 PAM | TRPML1 blocker | TRPV1 potentiator | Six1-Eya2 inh | CtBP-E1A blk | TRPML1 ag
O=c1cc(N/N=C/c2ccccc2)[nH]c(=O)[nH]1 | 5 | -6 | . | -22 | -1 | 0.2
COc1ccccc1N1CCN(S(=O)(=O)c2ccc(-c3ccc(=O)[nH]n3)o2)CC1 | -24 | 1 | -10 | -2 | -5 | -0.5

The listing continues:
canonical_smiles | D2 PAM | TRPML1 blocker | TRPV1 potentiator | Six1-Eya2 inh | CtBP-E1A blk | TRPML1 ag
O=C(COC(=O)c1c(Cl)ccc(Cl)c1Cl)NC(=O)NCc1ccccc1 | -7 | -1 | -9 | -6 | 6 | 3.2
O=C1c2ccccc2CN1C(CO)c1ccccc1 (centres undefined) | -4 | 0 | -6 | 0 | 7 | 2.1
N/C(=C\C(=O)c1cc(Cl)ccc1O)C(Cl)(Cl)Cl | 18 | . | -16 | -1 | -3 | .
Cc1ccc(S(=O)(=O)CCc2nnc(NC(=O)c3cccs3)s2)cc1 | -16 | 11 | 0 | 2 | 31 | 0.0
Cc1cccc2c1-c1sc(C(=O)Nc3cccc([N+](=O)[O-])c3C)cc1CO2 | -12 | 7 | 30 | 3 | 0 | -0.6
N#CCC(=O)N1CC2(CC(c3cccc(NC(=O)COc4ccc(Cl)cc4)c3)=NO2)C[C@@H]1C(N)=O (some centres undefined) | -6 | 10 | -17 | 1 | 1 | 0.1
COc1ccc2[nH]c(C(=O)NCc3ccccc3)cc2c1 | -4 | 7 | -17 | 0 | -12 | 1.6
COc1ccc(-c2cc(C3CCNCC3)[nH]n2)cc1 | -3 | 3 | -4 | -8 | -11 | 0.6
Cc1ccc(C2=CC(C)(c3ccc(C)cc3)Nc3nc(C(F)(F)F)nn32)cc1 (centres undefined) | -14 | 64 | 2 | 6 | -3 | 2.3
Cc1ccc(S(=O)(=O)n2nc(OC(=O)c3c(F)cccc3Cl)cc2N)cc1 | 0 | -8 | 16 | -19 | -2 | -1.6
CCOC(=O)N1CCC(N2Cc3cccc(C(=O)NCc4ccccn4)c3C2=O)CC1 | -6 | -4 | . | 5 | -3 | 0.6
CCSc1ccc([C@@H]2[C@H]3C(=O)N(C)C(=O)[C@H]3[C@]3(C(=O)OC)CCCCN23)cc1 | -13 | 8 | -21 | -8 | -3 | -1.2
CCN(CC)c1ccc(C(=O)N/N=C/c2ccc(N3CCOCC3)cc2)cc1 | 2 | 4 | -10 | 4 | 2 | -0.3
CC[N+]1(C)CCC(=C2c3ccccc3CC(=O)c3sccc32)CC1 (centres undefined) | -9 | 8 | 17 | -2 | 0 | -0.6
CC(C)Cc1ccc(S(=O)(=O)N2CCOCC2)cc1 | -17 | 12 | -2 | -2 | 0 | -0.3
Cc1ccc(NC(=O)CN2C(=O)NC(C)(c3ccc(Cl)cc3)C2=O)cc1 (centres undefined) | -6 | -15 | 11 | 0 | -5 | 3.5
COC(=O)[C@]12CCCCC=C1N(Cc1cccc3ccccc13)C(=O)[C@H](CC(=O)N1CCOCC1)C2 | . | . | . | -1 | -23 | 1.4
Cc1cc(=O)[nH]c(SCC(=O)Nc2nnc(SCc3ccccc3)s2)n1 | -3 | 23 | -22 | -17 | . | 3.5
COc1ccc(C(=O)NNC(=O)CSc2nc3c([nH]2)c(=O)n(C)c(=O)n3C)cc1 | -8 | -4 | -3 | -7 | . | 2.3
COc1ccc(C2(CNS(=O)(=O)c3ccc(C)cc3)CCOCC2)cc1 | -5 | 15 | 6 | 4 | 1 | 1.0
CC[C@@]1(C(=O)OC)N[C@H](CN(C)C(=O)NC(C)C)[C@@H]2C(=O)N(C)C(=O)[C@@H]21 | . | 8 | . | 1 | 8 | 0.0
CC#CCN(Cc1ccco1)C(=O)c1ccc(OC2CCN(Cc3ccccn3)CC2)cc1 | -6 | 10 | 20 | -15 | 6 | -0.4
COc1cc(C(=O)Nc2ccc3ccccc3c2)cc(OC)c1OC | -21 | 0 | 2 | 1 | -13 | 0.0
COc1ccc(CN(C)C(=O)c2cccc(S(=O)(=O)N3CCc4ccccc43)c2)c(OC)c1 | 0 | 59 | -2 | -11 | -1 | 3.7
CCOc1ccccc1/C=N/Nc1nc(C)cc(=O)[nH]1 | -10 | -7 | 1 | -1 | . | 0.3
O=C(O)/C=C/c1cn(-c2ccccc2)nc1-c1cccc([N+](=O)[O-])c1 | -6 | 8 | 3 | -1 | 6 | -0.6
Cn1c(Cc2ccc(Cl)cc2)nnc1SCC(=O)NC1CC1 | -4 | -3 | -1 | 12 | 8 | -0.3
COc1cc2c(cc1OC)CN(C(=O)C1CCC(=O)N(CCCN3CCOCC3)C1)CC2 (centres undefined) | -4 | -9 | 1 | 0 | -6 | 1.4
CCn1c(Cc2ccccc2)nnc1SCC(=O)N1CCCC1=O | 20 | -16 | -5 | -1 | -2 | 0.4
CCOc1ccccc1NC(=O)C1CCN(C(=O)Cc2ccccc2)CC1 | 2 | -22 | -11 | 29 | 23 | 0.3

Further structures follow.
Compound,D2 PAM,TRPML1 blocker,TRPV1 potentiator,Six1-Eya2 inh,CtBP-E1A blk,TRPML1 ag
O=C(NNC(=O)c1ccccc1F)c1ccc2nc[nH]c2c1,-5,3,0,0,4,0.1
Cc1cccc(N=C(N2CCOCC2)P(=O)(N2CCOCC2)N2CCOCC2)c1,-11,11,-2,5,4,-0.1
COc1ccccc1NC(=O)Nc1ccc(N2CCOCC2)cc1,-4,6,-9,-2,-22,0.3
CC(=O)Nc1ccc(C(=O)N2CCCCC2c2cc(C(=O)NCc3cccnc3)no2)cc1 (centres undefined),-14,27,.,2,10,0.2
COc1cc(C(O)c2nc(-c3ccccc3)cs2)ccc1F (centres undefined),-7,.,.,1,6,-0.5
O=C1CCCC[C@@H](O)[C@H](O)C[C@H](c2ccccc2)O1,.,.,.,1,7,0.0
CCCOc1ccccc1Cn1c(=O)oc2ccccc21,2,10,-11,20,33,2.8
CN(CC(=O)Nc1ccccc1-c1ccccc1)Cc1ccccc1Cl,-4,36,-9,2,16,3.9
CC(C)(C)c1ccc(C(=O)Nc2cccc(C(=O)N3CCOCC3)c2)cc1,-7,1,-25,-2,-14,1.2
CC(=O)OCC1=C(C(=O)O)N2C(=O)C(NC(=O)c3ccc(F)cc3)C2SC1 (centres undefined),-12,-5,2,3,.,0.1
Cc1c(C(=O)Nc2ccc(OCc3ccccc3)cc2)cccc1[N+](=O)[O-],-8,14,4,2,12,0.5
Cc1ccc(NC(=O)CC2SCCNC2=O)cc1Cl (centres undefined),-6,-6,3,-3,1,-0.5
Cc1cccc(Cn2cnc3c(sc4nc(C)cc(C)c43)c2=O)c1,-1,19,?,-7,3,-0.2
COc1ccc(NC(=O)c2sc3nc(C)cc(C)c3c2N)c(OC)c1,2,5,.,-1,.,1.1

Assay outcomes from PubChem BioAssay.
